Source: PubChem (National Center for Advancing Translational Sciences (NCATS))
GLA inh pH 4.5: alpha-galactosidase A (human) inhibition, pH 4.5 | P06280 | purified enzyme, 4-MU-alpha-Gal fluorescence, pH 4.5 | activity change, negative = inhibition, % at 105 µM | 230,000 tested, under 10 active | AID 1467; inconclusive = small, poorly fitted or top-dose-only inhibition, or a rising curve; inactive = flat fitted curve, though single readings scatter; no compound was filed as active;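 also: 0% = full activity with enzyme and -100% = basal without enzyme; dose as in the result columns while the protocol names 77 µM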
miR-21 reporter: raises the signal of a miR-21 reporter. HeLa miR-21 FLuc reporter, luciferase, 48 h. Potency, µM (top dose mostly 38.3 µM), inactives show at the highest dose reporter change, positive = more light. 340,000 tested, under 10 active; active = well fitted rising curve with a large enough effect; inconclusive = small, poorly fitted or top-dose-only effect; inactive = no such curve, though single readings can be large or run the other way;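 also: % of control where 0% means no effect; miR-21 action dims this reporter so a rising signal means less miR-21 action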
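Using DMEM plus 10% FBS, HeLa miR-21-FLuc cells are incubated with test compounds (final up to about 40uM) for 48 hours; firefly luciferase signal is then imaged following reagent-mediated lysis.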
Rango release inh: inhibitors of RanGTP-induced Rango-importin beta complex dissociation. O95149+P62826. Biochemical FRET Rango-importin beta, RanGTP-induced dissociation. Potency, µM (titrated, usually from 46.1 µM), without a hit: at the top dose activity change, negative = inhibition. actives 0.071% (n = 340,000); active means falling FRET ratio curve, often poorly fitted, with flat reads before Ran was added; inconclusive means other falling curves, or compound fluorescence or quenching; inactive means flat or rising ratio curve;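 also: potency is read from the fitted curve at half-maximal effect; % of control where 0% means no effect; nearly all actives have a fitted effect of over 45% in size; -100% = wells without RanGTP and RCC1; the record marks most hits as doubtful in a second field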
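Quantitative HTS using a FRET biosensor: 0.1 uM Rango, 0.25 uM importin beta, 0.6 uM Ran, 2 mM GTP, 0.2 uM RCC1 final, PBS with DTT, Tween-20 and BSA. Post-read taken 45 min after Ran addition.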
Rango-impB inh: Rango-importin beta binding inhibition. Q14974. Rango CFP/YFP FRET sensor + importin beta, 45 min. Potency, µM (titrated, usually from 92.2 µM), without a hit: at the top dose inhibition of complex formation. actives 0.031% (n = 340,000). AID 540263; active = rising FRET ratio curve, often small or poorly fitted; inconclusive = mostly compound fluorescence or quenching in the first reads; inactive = flat curves in all reads;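 also: potency is read from the fitted curve at half-maximal effect; 0% = DMSO wells and 100% = buffer wells lacking importin beta; nearly all actives have a fitted effect of over 15% in size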
Target sequence (Q14974 whole entry, looked up): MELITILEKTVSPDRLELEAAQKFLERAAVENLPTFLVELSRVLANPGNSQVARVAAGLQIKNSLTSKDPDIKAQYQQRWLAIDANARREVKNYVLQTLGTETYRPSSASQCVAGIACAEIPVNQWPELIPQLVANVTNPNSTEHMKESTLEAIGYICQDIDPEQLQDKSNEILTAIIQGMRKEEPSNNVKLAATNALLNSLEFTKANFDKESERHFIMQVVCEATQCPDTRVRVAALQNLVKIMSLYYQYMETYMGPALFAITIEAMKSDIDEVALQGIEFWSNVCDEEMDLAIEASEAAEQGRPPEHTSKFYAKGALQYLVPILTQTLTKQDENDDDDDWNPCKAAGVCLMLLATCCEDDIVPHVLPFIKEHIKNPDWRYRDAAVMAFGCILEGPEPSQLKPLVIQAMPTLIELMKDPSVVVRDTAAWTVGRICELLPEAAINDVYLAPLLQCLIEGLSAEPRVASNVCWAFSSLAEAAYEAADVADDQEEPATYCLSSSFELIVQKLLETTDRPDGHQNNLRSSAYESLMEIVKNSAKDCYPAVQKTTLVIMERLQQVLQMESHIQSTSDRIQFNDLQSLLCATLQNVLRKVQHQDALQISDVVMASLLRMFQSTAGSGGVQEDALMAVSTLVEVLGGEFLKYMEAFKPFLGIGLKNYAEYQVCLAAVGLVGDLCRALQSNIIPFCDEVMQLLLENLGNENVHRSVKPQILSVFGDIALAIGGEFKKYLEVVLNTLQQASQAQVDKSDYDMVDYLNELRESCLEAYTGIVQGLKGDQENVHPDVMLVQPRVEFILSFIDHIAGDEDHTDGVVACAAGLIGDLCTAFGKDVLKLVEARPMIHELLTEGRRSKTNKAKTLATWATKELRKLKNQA
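FRET biosensor (snurportin 1 IBB flanked by EYFP and cerulean), 50 nM, with compound 5 min, then 0.125 microM importin beta in PBS, 1 mM DTT, 0.02% Tween-20, 0.1% BSA. CFP/YFP ratio read after 45 min at room temperature; pre-read flags interference.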
* marks the source's active call; other numbers are inactive results; ? = inconclusive; nt = not tested or not shown. Not all compounds are listed; count on the stated rates, not on these rows.

SMILES | GLA inh pH 4.5 | miR-21 reporter | Rango release inh | Rango-impB inh
COCCSc1ccccc1C(=O)NCC1CCCO1 (configuration not stated) | 14 | -5% | 7% | -7.8%
O=C1CC[C@@H](CN(Cc2ccccc2)Cc2cn[nH]c2-c2cc3ccccc3o2)N1 | nt | 6% | -23% | -0.3%
COc1cc(C(C)=O)ccc1OCC(=O)Nc1cc(Cl)ccc1-n1cncn1 | nt | nt | 2% | -5.9%
C=CCOn1c(=O)c(-c2ccc(C)cc2)[n+]([O-])c2ccccc21 | nt | 0% | -2% | -0.6%
COc1ccc(NC(=O)COc2nc(N(C)C)nc(N(C)C)n2)cc1 | 3 | -7% | 1% | 0.0%
COCCCNC(=S)NNC(=O)c1ccc(S(=O)(=O)N2CCC(C)CC2)cc1 | 6 | -7% | 16% | 0.0%
COc1ccccc1NC(=O)C(C)OC(=O)CCCN=C1NS(=O)(=O)c2ccccc21 (configuration not stated) | nt | nt | 3% | 5.2%
COc1ccc(CN(C)C(=O)c2cccc(S(=O)(=O)N3CCCc4ccccc43)c2)c(OC)c1OC | nt | nt | -17% | -2.5%
CN(C)C=NC(=O)/C(C#N)=C1\CCc2ccccc2N1 | -5 | -11% | -29% | -4.6%
Cc1c(C(=O)N/N=C/c2cccc(O)c2)nnn1-c1nonc1N | nt | -10% | 0% | -4.1%
O=C(CCCN1C(=O)c2ccccc2C1=O)Nc1c2c(nc3c1CCC3)CCC2 | -9 | -5% | -6% | -2.6%
OC1CCN(C(c2ccc3ncccc3c2)c2nnnn2C2CCCCC2)CC1 (configuration not stated) | 6 | -10% | 1% | 1.2%
C=Cn1cc[n+](CC(=O)c2ccc(C)cc2)c1 | 4 | 0% | 17% | 3.3%
Cc1cc2nc3n(c2cc1C)CC1CC(C(=O)NCc2cccc(Br)c2)N(C)C31 (configuration not stated) | nt | nt | 11% | -0.3%
CCSc1nnc(NC(=O)C2CCCN(S(=O)(=O)c3cnc[nH]3)C2)s1 (configuration not stated) | 5 | -6% | 23% | -1.0%
CCC(=O)c1ccc(OCC(=O)OC(C)C(=O)N2CCc3ccccc32)cc1 (configuration not stated) | nt | nt | -6% | -2.0%
O=C(NCCc1ccc(F)cc1)C(=O)NCC1CCCN1S(=O)(=O)c1cccs1 (configuration not stated) | nt | nt | -14% | 6.0%
CCNC(=S)NNC(=S)NCc1ccccc1 | 5 | -17% | -5% | -4.2%
N#Cc1ccccc1OCC(=O)NC(=O)NCc1ccco1 | 2 | -63% | 3% | -1.5%
Cc1ccc(NS(=O)(=O)c2ccc(F)cc2)nc1 | nt | 0% | -22% | -3.4%
Cc1ccc(COc2ccc(CNCCCN3CCCCCC3=O)cc2)cc1 | nt | -23% | 10% | 2.9%
Nc1ccc(S(N)(=O)=O)cc1N | -7 | -50% | -29% | ?
Cc1ccccc1OCCN1C(=O)NC2(CCCc3ccccc32)C1=O (configuration not stated) | -4 | 0% | 2% | -0.3%
CCCc1ccc(OCc2ccc(C(=O)Nc3cccc(C)n3)o2)c(OC)c1 | -6 | 1% | 1% | -2.5%
CCN1CCN(C(=O)Cn2ncc3ccsc3c2=O)CC1 | 5 | -8% | 9% | 0.9%
CCn1c(N2CCN(C(=O)/C=C/c3ccccc3)CC2)nc2ccccc21 | 7 | -4% | -2% | -3.9%
O=[N+]([O-])c1cc(/C=N/O)ccc1SCc1ccccc1 | -7 | -30% | 0% | -0.2%
CC1CCN(S(=O)(=O)c2ccc(NC(=O)[C@@H]3CCCC[C@@H]3C(=O)O)cc2)CC1 | nt | -4% | 7% | 1.1%
O=C(/C=C/c1cccc([N+](=O)[O-])c1)NCCSCc1cccc(Cl)c1 | -14 | -5% | 7% | 0.6%
O=S(=O)(Nc1ccccc1N1CCCCC1)c1ccccc1 | nt | 0% | 6% | 0.2%

As entered above.
Entry for `CC1CCN(S(=O)(=O)c2ccc(NC(=O)[C@@H]3CCCC[C@@H]3C(=O)O)cc2)CC1` in Rango-impB inh: 1.1%
Entry for `O=S(=O)(Nc1ccccc1N1CCCCC1)c1ccccc1` in Rango-impB inh: 0.2%
Entry for `CCNC(=S)NNC(=S)NCc1ccccc1` in miR-21 reporter: -17%

In the list so far, two have a Cl atom.
SMILES | GLA inh pH 4.5 | miR-21 reporter | Rango release inh | Rango-impB inh
COc1cc(C(C)=O)ccc1OCC(=O)Nc1cc(Cl)ccc1-n1cncn1 | nt | nt | 2% | -5.9%
O=C(/C=C/c1cccc([N+](=O)[O-])c1)NCCSCc1cccc(Cl)c1 | -14 | -5% | 7% | 0.6%

(continued)
SMILES | GLA inh pH 4.5 | miR-21 reporter | Rango release inh | Rango-impB inh
O=C(O)/C=C\c1cccc(-n2nnnc2SCc2ccccc2F)c1 | nt | -2% | 12% | -1.0%
COc1c(C)cccc1C(=O)Nc1cc(-c2nn3c(C)nnc3s2)ccc1C | nt | nt | 2% | -4.9%
COc1ccccc1NC(=S)NCCc1ccccc1 | 3 | -5% | -3% | 1.9%
NNC(=S)Nc1cccc(-c2n[nH]c(=S)o2)c1 | 2 | -10% | -4% | 1.6%
COc1ccc2c(c1)c(C(=O)N/N=C/c1ccc(Br)cc1)c(C)n2C | 3 | 19% | -11% | 0.9%
CCOC(=O)c1ccc(NC(=O)Nc2c(C)nn(C)c2C)cc1 | 2 | -5% | 9% | -2.9%
Cc1cc(C)n(CC2CC(=O)N(c3ccccc3)C2=O)n1 (configuration not stated) | -2 | 2% | -7% | 3.8%
CCc1ccc(NC(=O)COc2ccc3c(c2)OCO3)cc1 | nt | -38% | 2% | -1.0%
CN[C@H]1CCc2cc(OC)c(OC)c(OC)c2-c2ccc(N(C)CC(OC)OC)c(=O)cc21 | nt | 26% | -9% | 0.9%
COC(=O)CNC(=O)COC(=O)/C=C/c1cccs1 | -8 | 3% | -12% | -3.6%
O=C(OCc1nc2ccc(Cl)cc2n1CCO)c1ccc(O)cc1 | -9 | -5% | 1% | 5.2%
CCOC(=O)c1cc(-c2ccc(/C=C3/C(=O)N(c4ccc(C(=O)O)cc4)N=C3C)o2)ccc1Cl | nt | -1% | 9% | -5.3%
COc1ccc(Cc2nnc(NC(=O)CSc3ccc(C)cc3)s2)cc1OC | -5 | -1% | -4% | -0.7%
Cc1ccsc1C(=O)NCCc1ccco1 | nt | nt | 21% | ?
CC(C)(C)/C(O)=C/c1nc2ccccc2oc1=O | 4 | -1% | -1% | -1.0%
COc1ccc(NC(=S)N2CCC(C(=O)c3ccc(OC)cc3)CC2)cc1 | nt | -3% | -4% | -6.5%
O=C(/C=C/Nc1ccc(S(=O)(=O)Nc2cnc3ccccc3n2)cc1)c1cccnc1 | -6 | -31% | 3.3µM* | ?
Cc1ccc(CNC(=O)c2ccc(F)c(S(=O)(=O)N3CCOCC3)c2)cc1 | nt | nt | 9% | 0.3%
COCc1ccc(C(=O)NC2CCCN(Cc3ccccc3F)C2)o1 (configuration not stated) | nt | -9% | 3% | 0.9%
C[Si](C)(C)n1ccnc1 | nt | 4% | -15% | -0.9%
O=C(COc1ccccc1)NCC(=O)N/N=C/c1cccs1 | -5 | -4% | 10% | -3.5%
O=C(CSc1nc(O)c(Cc2ccccc2)c(=O)n1-c1ccccc1)N1CCOCC1 | 5 | -1% | -11% | -0.4%
O=C(CNc1ccccc1OC(F)F)N1CCc2ccccc21 | 2 | -57% | 6% | -2.3%
CC(=O)c1cccc(NC(=O)C(C)OC(=O)CCCN=C2NS(=O)(=O)c3ccccc32)c1 (configuration not stated) | nt | nt | -5% | 2.8%
Cc1ccc(-n2c(N)cc(=O)nc2SCC(=O)N2CCN(c3ccccc3)CC2)cc1C | nt | -8% | -10% | 1.8%
CC(=O)Oc1ccc(Oc2ccc(-c3noc(C)n3)cc2)cc1 | -9 | -34% | 0% | -6.7%
CCC(C)Sc1cc(-c2nc3ccccn3c2NC2CCCCC2)ccc1OC (configuration not stated) | nt | nt | -40% | ?
Cc1c(/C(Cc2ccccc2)=N/O)c2ccccc2n1C | -5 | -13% | -20% | -2.8%
Cc1ccc(/C(N)=N/OC(=O)c2ccc(F)cc2)cc1 | 4 | -39% | 4% | -2.0%
O=C1CCC(=O)N(O)CCCCCNC(=O)CCC(=O)N(O)CCCCCNC(=O)CCC(=O)N(O)CCCCCN1 | -2 | -1% | -8% | -0.1%
Cc1c(/C=N/n2cnnc2)c2ccccc2n1CCOc1ccc(Cl)cc1 | -1 | -18% | 24% | 0.3%
CC(=O)N1CCc2cc(S(=O)(=O)NC(C)c3ccccc3)ccc21 (configuration not stated) | nt | 6% | -4% | -0.2%
O=[N+]([O-])c1ccc(CN2CCN(c3ccccc3)CC2)o1 | nt | -3% | 2% | 2.1%
CCOC(=O)c1sc(=NC(=O)CCSc2ccccc2)n(C)c1C | 4 | -12% | -9% | 6.5%
CCOc1ccc(NC(=O)N(C2CCCCC2)C(C)c2ccncc2)cc1 (configuration not stated) | 6 | -4% | -8% | -1.9%
COc1ccc(N2CCN(CC(=O)Nc3ccc(-n4cnnn4)cc3)CC2)cc1 | 1 | -5% | 0% | -2.1%
CC(C)C[C@@H](CO)N1CCN(CCc2ccccc2)CCC1=O | nt | 0% | -4% | -1.2%
COc1cc(C=C(c2nc3ccccc3s2)c2nc3ccccc3s2)ccc1O | -12 | -10% | 1% | ?
CCNC(=O)N1CCOCC1 | 6 | -3% | 10% | 0.9%
COCc1cc(Sc2ccc(Cl)cc2)nc(C)n1 | 4 | -12% | -8% | -0.2%
COc1ccc2nc(-n3c(C)ccc3C)sc2c1 | -1 | -19% | -18% | 0.2%
CC1CCCCN1C(=O)COC(=O)c1n[nH]c2ccccc12 (configuration not stated) | 7 | -49% | -24% | 1.0%
Cc1ccc(C(=O)N(C)CC(=O)Nc2cccc(F)c2)cc1S(=O)(=O)N1CCCCC1 | nt | nt | 13% | 4.6%
CCOCCCNC(=O)c1c[nH]c2c(CC)cccc2c1=O | 9 | -9% | -6% | -2.4%
CN(c1ccccc1)S(=O)(=O)c1cccc(C(=O)NCC(=O)Nc2ccc(F)c(F)c2F)c1 | nt | nt | -3% | -1.5%
O=C(Nc1ccccc1F)C1CCN(C(=O)NC2CCCCC2)CC1 | nt | 6% | 2% | 2.0%
CCCNC(=O)c1onc(CSc2ccc(F)cc2)c1C(=O)NCCC | -7 | 4% | 2% | ?
COc1ccc(/C(O)=C2\C(=O)C(=O)N(c3cc(C)on3)C2c2cccc(OC)c2OC)cc1C (configuration not stated) | 0 | -11% | -7% | ?
CCOc1ccc(Br)cc1C(=O)N/N=C/c1ccccn1 | nt | 2% | -14% | 1.0%
Cc1ccc(CNC(=O)C2CCCN(c3nc4ccccc4o3)C2)cc1 (configuration not stated) | 6 | -10% | 1% | -0.3%
CCOP1(=O)C=C(Sc2ccc([N+](=O)[O-])cc2[N+](=O)[O-])C(C)(C)O1 (configuration not stated) | nt | nt | 14% | 1.9%
O=C(CCCOc1ccc(Cl)cc1Cl)Nc1cccnc1 | -8 | -7% | -1% | -4.7%
CC(C)N(C)Cc1cn(C)nc1-c1ccc(Oc2ccccc2)cc1 | nt | -11% | -15% | -1.5%
COc1ccccc1NC(=O)C(=O)N/N=C(\C)CC(=O)Nc1ccccn1 | 9 | -13% | 20% | -1.9%
Cc1ccc(-c2nc(S(=O)(=O)c3ccc(C)cc3)c(N3CCOCC3)o2)cc1 | nt | -1% | -17% | -2.6%
O=C(Nc1cccc(-n2cnnn2)c1)c1ccoc1COc1ccc(Cl)cc1 | nt | 5% | -9% | 0.9%
COc1cccc(CC(=O)NNC(=O)c2ccc3c(c2)OCO3)c1 | nt | -1% | 24% | 1.5%

Three entries from above, field by field.
CC(C)N(C)Cc1cn(C)nc1-c1ccc(Oc2ccccc2)cc1
  GLA inh pH 4.5: nt | miR-21 reporter: -11% | Rango release inh: -15% | Rango-impB inh: -1.5%

COc1ccccc1NC(=O)C(=O)N/N=C(\C)CC(=O)Nc1ccccn1
  GLA inh pH 4.5: 9 | miR-21 reporter: -13% | Rango release inh: 20% | Rango-impB inh: -1.9%

Cc1ccc(-c2nc(S(=O)(=O)c3ccc(C)cc3)c(N3CCOCC3)o2)cc1
  GLA inh pH 4.5: nt | miR-21 reporter: -1% | Rango release inh: -17% | Rango-impB inh: -2.6%
